Compound activity as filed in PubChem.
MITF inh: inhibitors of MITF, primary screen, MITF inhibitor project, cell-based, luminescence; TRPM1 promoter luciferase, 24 h; inhibition, % (concentration not given with the values); hit rate 0.28% among 37,000;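 active means most replicates at 85% or more, or half of them and the mean; inconclusive means half reach 85% but not the mean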;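 further: human melanocyte line stably carrying TRPM1 promoter luciferase reporter; 0% = vehicle wells and 100% = a positive control; the first replicate is given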
YB-1 expression: inhibitors of YB-1 gene expression, primary screen, cell-based, fluorescence; U2OS, qRT-PCR YB-1 vs CDIP delta delta Cp, 16 h; active compounds read high; zero = DMSO, each unit about twofold; delta delta Cp (YB-1 minus CDIP) (no concentration beside the values); hit rate 0.37% among 30,000; AID 434959, 2010;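 active means delta delta Cp rounded down to an integer at or above 3, about 3 SD of DMSO wells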;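 further: higher means less YB-1 transcript or more CDIP transcript relative to DMSO; stock transfer was 100 nL into about 100 µL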
PD-1 reverse act: activators reversing PD-1 mediated T-cell inhibition, primary screen, luminescence, primary human CD4 T cells, PD-L1 beads; CellTiter-Glo 96 h; activation, % (test concentration not listed); 29,000 tested, under 10 active; AID 2316, 2010;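 active means replicate mean of 50% or more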;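 further: 0% = median vehicle wells and 100% = positive control; 100 nL library stock added to about 50 µL; numbers are from one replicate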
Hedgehog inh: Hedgehog pathway signaling inhibitors, primary screen, luminescence, Shh-LIGHT2 cells, Gli-luciferase; Shh-LIGHT2 Gli-luciferase reporter, 30 h; inhibition, % (concentration not given with the values); hit rate 2.1% among 22,000;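 active means replicate mean of 65% or more; inconclusive means mean lower but half the replicates past it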;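 further: pathway switched on by Shh-conditioned medium diluted 1 in 25 in low serum; 100 nL library stock added to about 40 µL; 0% = median of neutral wells and 100% = positive control level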
* marks the source's active call; other numbers are inactive results; ? = inconclusive; · = no result given. These rows are one share of the data. The share of hits here may be higher or lower than overall.

#	Compound	MITF inh	YB-1 expression	PD-1 reverse act	Hedgehog inh
1	Cc1noc(C)c1S(=O)(=O)Nc1cccc2c1O[C@H](CN(C)Cc1ccc(C(=O)Nc3ccccc3N)cc1)[C@H](C)CN([C@H](C)CO)C2=O	11.0	-0.224	0.1	·
2	CN(CC(=O)Nc1cccnc1)S(=O)(=O)c1ccc2ccccc2c1	-7.5	·	-0.2	·
3	C[C@@H]1CCCCO[C@@H](CN(C)S(C)(=O)=O)[C@@H](C)CN([C@H](C)CO)C(=O)c2cc(NC(=O)Nc3ccc(F)cc3)ccc2O1	-10.6	-0.317	0.2	-29.4
4	COc1ccc2c(c1OC)OC[C@@H](c1ccc(OC)c(OC)c1OC)C2	11.8	0.746	·	29.5
5	CCc1cccc(C)c1NC(=O)CSc1nnc(-c2ccc(OC)cc2)o1	3.6	·	0.7	·
6	C[C@@H]1CN([C@@H](C)CO)C(=O)c2cc(NC(=O)CCCN(C)C)ccc2O[C@H]1CN(C)Cc1ccc(C(=O)O)cc1	-0.9	0.0791	1.0	-22.8
7	COc1ccc(NC(=O)Nc2ccc3c(c2)C(=O)N([C@H](C)CO)C[C@@H](C)[C@H](CN(C)Cc2ccc(Cl)c(Cl)c2)O3)cc1	2.4	-0.615	3.5	·
8	C[C@H](CO)N1C[C@H](C)[C@@H](CN(C)Cc2ccc3c(c2)OCO3)Oc2c(cccc2N(C)C)C1=O	-0.9	-0.129	1.1	-39.1
9	COc1cc(O)cc(OC)c1OC	17.2	0.0525	·	?
10	O=C(c1cccc(Cl)c1)N1CCOCC1	6.4	0.178	4.2	-12.2
11	OC[C@@]1(O)CO[C@H](OC[C@H]2O[C@@H](OC(CCCCc3ccc(O)cc3)CCc3ccc(O)cc3)[C@H](O[C@H]3OC[C@](O)(CO)[C@H]3O)[C@@H](O)[C@@H]2O)[C@@H]1O (some centres not stated)	11.7	0.499	0.3	-5.3
12	C[C@@H]1CN([C@H](C)CO)C(=O)Cc2cc(NS(=O)(=O)c3ccc(F)cc3)ccc2O[C@H]1CN(C)Cc1ccc(Cl)c(Cl)c1	11.7	-0.0763	·	13.2
13	C[C@H]1CN([C@@H](C)CO)C(=O)c2cccc(NC(=O)c3ccc(-c4nccs4)cc3)c2O[C@H]1CN(C)Cc1ccc(-c2ccccc2)cc1	-4.9	0.178	-2.7	18.7
14	C[C@H]1CN([C@@H](C)CO)C(=O)Cc2cc(NC(=O)Nc3ccc4c(c3)OCO4)ccc2O[C@H]1CN(C)S(=O)(=O)c1ccccc1	29.0	0.0626	·	-27.6
15	C[C@H]1CN([C@@H](C)CO)C(=O)c2cccc(NS(=O)(=O)c3ccccc3)c2O[C@H]1CN(C)S(=O)(=O)c1ccc(Cl)cc1	21.0	-0.653	-3.2	54.6
16	COc1ccc(NC(=O)N(C)C[C@@H]2Oc3ccc(NC(=O)Nc4cccc5ccccc45)cc3C(=O)N([C@@H](C)CO)C[C@H]2C)cc1	-0.6	0.00985	·	-57.0
17	COc1ccc(S(=O)(=O)Nc2cccc3c2O[C@@H](CN(C)S(=O)(=O)c2c(C)noc2C)[C@H](C)CN([C@@H](C)CO)C3=O)cc1	0.4	0.297	-1.2	-18.6
18	CC(C)NC(=O)Nc1ccc2c(c1)C(=O)N([C@H](C)CO)C[C@@H](C)[C@@H](CN(C)Cc1ccncc1)O2	-0.1	-0.25	-1.3	·
19	C[C@H]1CN([C@@H](C)CO)C(=O)c2cccc(NC(=O)Nc3ccc(C(F)(F)F)cc3)c2O[C@H]1CN(C)Cc1ccncc1	-5.3	-0.0368	·	-15.4
20	C[C@@H]1CCCCO[C@H](CN(C)C(=O)Nc2ccccc2)[C@@H](C)CN([C@H](C)CO)C(=O)c2cc(N(C)C)ccc2O1	13.5	0.0399	1.5	-26.3
21	Cc1c(CCC(=O)O)c(=O)oc2cc(OCc3ccc(Cl)c(Cl)c3)ccc12	-23.0	·	-1.1	·
22	C[C@@H]1CN([C@@H](C)CO)C(=O)c2cccc(NC(=O)c3ccc(-c4nccs4)cc3)c2O[C@H]1CN(C)Cc1ccc(C(=O)O)cc1	-4.6	-0.391	1.3	-24.0
23	C[C@H]1CN([C@@H](C)CO)C(=O)c2cc(NC(=O)CCC(F)(F)F)ccc2O[C@@H]1CN(C)Cc1ccc(C(F)(F)F)cc1	-0.2	0.448	-0.4	·
24	C[C@@H]1CN([C@@H](C)CO)C(=O)c2cc(NS(=O)(=O)c3cccs3)ccc2O[C@H]1CN(C)S(=O)(=O)c1ccc(Cl)cc1	-3.0	-0.166	0.0	·
25	C[C@H]1CN([C@@H](C)CO)C(=O)Cc2cc(NS(=O)(=O)c3ccccc3)ccc2O[C@H]1CN(C)S(=O)(=O)c1ccccc1	-16.4	0.0945	1.1	3.1
26	COc1cc(C(C)=O)ccc1OCC(O)Cn1nc(C)c(Br)c1C (configuration not stated)	-26.1	·	0.9	·
27	C[C@H](CO)N1C[C@H](C)[C@H](CN(C)Cc2ccc(-c3ccccc3)cc2)Oc2ccc(NS(=O)(=O)c3ccc(F)cc3)cc2CC1=O	0.4	-0.328	2.5	-8.0
28	C[C@@H]1CN([C@H](C)CO)C(=O)c2cccc(NS(=O)(=O)c3ccc(Cl)cc3)c2O[C@H]1CN(C)Cc1ccc(-c2ccccc2)cc1	12.5	0.0201	·	-14.8
29	Nc1nnc(SCC(=O)Nc2ccc(Br)cc2Cl)n1-c1ccccc1	-41.0	·	0.5	·
30	C[C@@H]1CN([C@@H](C)CO)C(=O)c2cc(NC(=O)Cc3ccccc3)ccc2O[C@@H]1CN(C)S(=O)(=O)c1cn(C)cn1	5.1	0.598	1.0	9.2
31	COc1ccc(NC(=O)Nc2ccc3c(c2)CC(=O)N([C@@H](C)CO)C[C@H](C)[C@@H](CN(C)S(=O)(=O)c2ccc(F)cc2)O3)cc1	-8.5	-0.123	-0.6	·
32	C[C@@H]1CN([C@H](C)CO)C(=O)Cc2cc(NS(=O)(=O)c3cn(C)cn3)ccc2O[C@@H]1CN(C)S(=O)(=O)c1ccc(Cl)cc1	-10.8	-0.373	1.2	-6.2
33	CNC[C@@H]1Oc2c(NC(=O)C3CCOCC3)cccc2C(=O)N([C@@H](C)CO)C[C@@H]1C	-3.0	1.18	1.8	-27.8
34	CC(C)(C)Nc1nc(SCC(N)=O)nc(N2CCOCC2)n1	-8.4	·	3.5	·
35	C[C@@H]1CCCCO[C@@H](CN(C)Cc2ccccc2)[C@@H](C)CN([C@H](C)CO)C(=O)c2cc(NC(=O)NC3CCCCC3)ccc2O1	19.2	-0.26	·	12.8
36	C[C@@H]1CN([C@@H](C)CO)C(=O)c2cc(NC(=O)CCCCCC(=O)Nc3ccccc3N)ccc2O[C@H]1CN(C)Cc1ccncc1	-5.4	0.996	1.0	·

Going on with the list:
Value order – MITF inh | YB-1 expression | PD-1 reverse act | Hedgehog inh
(37) Cc1noc(C)c1S(=O)(=O)Nc1ccc2c(c1)CC(=O)N([C@@H](C)CO)C[C@H](C)[C@H](CN(C)C)O2
 : 0.6 | -0.0742 | 0.6 | ·
(38) C[C@@H]1CN([C@@H](C)CO)C(=O)c2cccc(NS(=O)(=O)c3cccs3)c2O[C@H]1CN(C)S(=O)(=O)c1ccc(Cl)cc1
 : 5.5 | -0.316 | -1.5 | -10.0
(39) CCN(CC(=O)Nc1ccc(F)c(Cl)c1)S(=O)(=O)c1ccc(C)cc1
 : 18.7 | · | 0.8 | ·
(40) COc1ccc(C2CC(=O)c3cnc(NCCN4CCOCC4)nc3C2)cc1 (configuration not stated)
 : -17.2 | · | 1.0 | ·
(41) COc1cc2c(cc1NC(=O)CN(C)S(=O)(=O)c1ccc(Cl)cc1)oc1ccccc12
 : -6.1 | · | 2.9 | ·
(42) C[C@@H]1CN([C@H](C)CO)C(=O)c2cccc(NC(=O)c3ccncc3)c2O[C@H]1CN(C)S(=O)(=O)c1ccc(Cl)cc1
 : 2.5 | -0.133 | 2.7 | -25.8
(43) C[C@H]1CN([C@@H](C)CO)C(=O)c2cc(NC(=O)Cn3cnnn3)ccc2O[C@H]1CN(C)C
 : -4.8 | 0.169 | 0.4 | -32.9
(44) Cc1ccc(S(=O)(=O)Nc2ccc3c(c2)CC(=O)N([C@@H](C)CO)C[C@H](C)[C@@H](CN(C)C(=O)Nc2ccc(C(F)(F)F)cc2)O3)cc1
 : -14.1 | 0.00425 | · | ·
(45) C[C@@H]1CN([C@H](C)CO)C(=O)c2cccc(NC(=O)c3ccc(-c4nccs4)cc3)c2O[C@@H]1CN(C)Cc1ccccc1
 : -6.1 | -0.197 | -0.7 | -53.8
(46) CCOC(=O)CNC(=O)c1cc(C)on1
 : -6.6 | · | 3.2 | ·

A second format for some results above:
17. COc1ccc(S(=O)(=O)Nc2cccc3c2O[C@@H](CN(C)S(=O)(=O)c2c(C)noc2C)[C@H](C)CN([C@@H](C)CO)C3=O)cc1
- MITF inh: 0.4
- YB-1 expression: 0.297
- PD-1 reverse act: -1.2
- Hedgehog inh: -18.6
18. CC(C)NC(=O)Nc1ccc2c(c1)C(=O)N([C@H](C)CO)C[C@@H](C)[C@@H](CN(C)Cc1ccncc1)O2
- MITF inh: -0.1
- YB-1 expression: -0.25
- PD-1 reverse act: -1.3
- Hedgehog inh: ·

Going on with the list:
Value order – MITF inh | YB-1 expression | PD-1 reverse act | Hedgehog inh
(47) C[C@@H]1CN([C@H](C)CO)C(=O)Cc2cc(NC(=O)Cn3cnnn3)ccc2O[C@H]1CN(C)S(=O)(=O)c1cn(C)cn1
 : -11.8 | 0.511 | 2.9 | -52.4
(48) C[C@@H]1CN([C@H](C)CO)C(=O)c2cccc(NC(=O)c3ccncc3)c2O[C@H]1CN(C)C(=O)Nc1ccc(C(F)(F)F)cc1
 : 3.6 | -0.474 | -1.4 | -0.1
(49) C[C@@H]1CCCCO[C@@H](CN(C)S(=O)(=O)c2cn(C)cn2)[C@@H](C)CN([C@H](C)CO)C(=O)c2cc(NS(C)(=O)=O)ccc2O1
 : -5.2 | -0.474 | 1.8 | -19.7
(50) Cc1ccc(C(=O)c2oc3ccccc3c2NC(=O)c2cc3ccccc3oc2=O)cc1F
 : -12.7 | · | -1.8 | ·
(51) COc1cc(/C=C/C(=O)NCCc2ccc(O)cc2)ccc1O
 : · | 0.0687 | · | 2.6
(52) Cc1c(C(=O)N2CCN(C)CC2)oc2c1C(=O)CC(C)(C)C2
 : -5.8 | -0.252 | 0.3 | ·
(53) C[C@@H]1CN([C@@H](C)CO)C(=O)Cc2cc(NC(=O)NC3CCCCC3)ccc2O[C@@H]1CN(C)S(=O)(=O)c1ccccc1
 : -5.9 | 0.0607 | -1.0 | -12.7
(54) COc1ccc(CN(C)C[C@@H]2Oc3ccc(NC(=O)Nc4ccc(F)cc4)cc3CC(=O)N([C@@H](C)CO)C[C@@H]2C)cc1
 : -12.0 | -0.553 | · | 5.2
(55) CC1(COc2ccc(CC3SC(=O)NC3=O)cc2)CCCCC1 (configuration not stated)
 : -13.9 | -0.117 | · | -79.2
(56) Cc1nc(CSc2ncnc3sc4c(c23)CCCCC4)cs1
 : -15.2 | · | 0.2 | ·

Entries listed so far containing bromine, in the order listed:
Value order – MITF inh | YB-1 expression | PD-1 reverse act | Hedgehog inh
(26) COc1cc(C(C)=O)ccc1OCC(O)Cn1nc(C)c(Br)c1C (configuration not stated)
 : -26.1 | · | 0.9 | ·
(29) Nc1nnc(SCC(=O)Nc2ccc(Br)cc2Cl)n1-c1ccccc1
 : -41.0 | · | 0.5 | ·

(further entries)
Value order – MITF inh | YB-1 expression | PD-1 reverse act | Hedgehog inh
(57) CS(=O)(=O)N(CC(=O)Nc1cc(Cl)cc(Cl)c1)c1cccc(Cl)c1
 : -19.3 | · | 2.3 | ·
(58) Cc1ccc(C(=O)O)cc1NC(=O)COc1ccc(C(C)(C)C)cc1
 : -74.4 | · | -0.9 | ·
(59) O=C(O)c1ccc(C(F)(F)F)cc1C(F)(F)F
 : 7.6 | -15.7 | 0.0 | ·
(60) C[C@@H]1CN([C@@H](C)CO)C(=O)c2cc(NC(=O)c3ccncc3)ccc2O[C@H]1CN(C)C(=O)Nc1ccccc1
 : -4.4 | · | 0.6 | ·
(61) COc1ccc(NC(=O)N(C)C[C@@H]2Oc3ccc(NC(=O)CCC(F)(F)F)cc3C(=O)N([C@@H](C)CO)C[C@H]2C)cc1
 : -23.8 | 0.0249 | · | 9.9
(62) COc1cc(NC(=O)CS(=O)(=O)Cc2ccccc2)c(OC)cc1Cl
 : 14.3 | · | -1.7 | ·
(63) COC(=O)CSc1ncnc2scc(-c3ccc(Cl)cc3)c12
 : -6.4 | · | -1.1 | ·
(64) C[C@@H]1CCCCO[C@H](CN(C)S(=O)(=O)c2ccccc2)[C@@H](C)CN([C@H](C)CO)C(=O)c2cc(NC(=O)NC3CCCCC3)ccc2O1
 : 0.9 | 0.247 | -1.7 | -13.7
